Screening data as filed in PubChem BioAssay.
VACV mCherry inh = vaccinia inhibition (mCherry reporter); Vaccinia virus mCherry reporter infection, fluorescence; about a quarter of the inactives have no number; Potency, µM (doses to about 36.5 µM), without a hit: at the top dose activity change, negative = inhibition, usual class: inhibitors; 310,000 tested, 0.63% active; AID 720579; active = well fitted inhibition curve with a large enough effect; inconclusive = small, poorly fitted or top-dose-only effect; inactive = no such curve, though single readings can be large or run the other way; tested in A549 cells; note: nearly all actives have a fitted effect of over 35% in size; inactives centre near -10
Vaccinia Venus = vaccinia inhibition (Venus reporter) | Vaccinia virus Venus reporter expression, fluorescence | 330,000 tested, 0.46% active | Potency, µM (titrated, usually from 36.5 µM), for inactives: at the top dose activity change, negative = inhibition, usual class: inhibitors | AID 720580; active means well fitted inhibition curve with a large enough effect; inconclusive means small, poorly fitted or top-dose-only effect; inactive means no such curve, though single readings can be large or run the other way; tested in A549 cells; note: nearly all actives have a fitted effect of over 30% in size; inactives centre near -10
* hit, by the source's call; i = inactive; ? = inconclusive; . = not tested or not shown; & = joins results of further samples; [ ] = remark or other dose. % is set by controls: 0 for no effect and ±100 for the full control effect; potency is the fitted concentration of half-maximal effect. Rows are unselected (roughly 0.87% active in at least one column).

SMILES	VACV mCherry inh	Vaccinia Venus
COc1ccc(CCC(=O)NCCS(=O)(=O)N2CCN(c3ccc(OC)cc3)CC2)cc1	-1.6%	-9.8%
O=C(CSc1nnc(NC(=O)C2CC2)s1)Nc1ccccc1C(F)(F)F	14.7%	2.3%
CCOC(=O)C1=C(C)N(CCCC(=O)O)C(=O)NC1C(CC)CC (centres undefined)	i	2.6%
Cc1ccc2c(c1)c(=O)c1c3n2CCN(C(=O)CCl)C3CC1 (centres undefined)	-12.5%	-4.1%
CCOC(=O)c1ccc(NC(=O)c2cc3ccccc3o2)cc1	.	-7.7%
Cc1ccc(NC(=O)Cn2c(=O)oc3ccccc32)cc1C	-20.1%&0.3%	-15.3%&-3.8%
CCCCC(=O)NC(=S)Nc1cc(C(=O)O)ccc1Cl	i	-8.2%
O=C(CN1N=C(c2ccccc2)CCC1=O)NCc1cccs1	i	-7.0%
OC[C@@H]1CN(Cc2ccc3c(c2)OCO3)C[C@H](n2cnc3c(N4CCN(c5ccccc5)CC4)ncnc32)O1	-6.4%	-1.6%
Cc1cc(C)nc(SCc2nnc(SCC(=O)Nc3nc(-c4ccccc4)cs3)n2C)n1	-4.9%	3.8%
N#C/C(=N\Nc1ccccc1)C(=N)N1CCCCC1	.	-21.3%
CCN(C(=O)Cn1c(=O)n(Cc2ccccc2)c(=O)c2ccccc21)c1cccc(C)c1	-14.3%	-11.9%

3 entries out of the list, sorted by SMILES length, largest number first:
SMILES	VACV mCherry inh	Vaccinia Venus
OC[C@@H]1CN(Cc2ccc3c(c2)OCO3)C[C@H](n2cnc3c(N4CCN(c5ccccc5)CC4)ncnc32)O1	-6.4%	-1.6%
COc1ccc(CCC(=O)NCCS(=O)(=O)N2CCN(c3ccc(OC)cc3)CC2)cc1	-1.6%	-9.8%
CCCCC(=O)NC(=S)Nc1cc(C(=O)O)ccc1Cl	i	-8.2%

(list continues)
SMILES	VACV mCherry inh	Vaccinia Venus
O=C(NC1CCCCC1)C(c1ccc(F)cc1)N(CCN1CCOCC1)C(=O)c1ccc(-c2ccccc2)[nH]1 (centres undefined)	-5.2%	-11.9%
Cc1ccc(-c2nnc(CN3CCN(C)CC3)o2)cc1	i	-4.7%
CC(=O)NC1CCCN(O)C(=O)/C=C(\C)CCOC(=O)C(NC(C)=O)CCCN(O)C(=O)/C=C(\C)CCOC(=O)C(NC(C)=O)CCCN(O)C(=O)/C=C(\C)CCOC1=O (centres undefined)	-11.8%	-12.2%
CCC[C@H]1CN(c2ccc(Br)cc2)C(=O)[C@@H]1CC(=O)NC	-16.8%	-25.2%
CCOC(=O)c1sc(NC(=O)CSc2nnc(-c3ccco3)n2CC)c(C(=O)OCC)c1C	i	0.0%
CCOc1cc(C)nc(Oc2ccc(=O)[nH]n2)n1	-1.5%	-0.9%
COc1cc(C(=O)NC2CCCCCCC2)cc(OC)c1OC	i	5.5%
CC(C)OCCCNC(=O)CCCn1c(SCC(N)=O)nc2c(sc3ccccc32)c1=O	-2.0%	-3.1%
CS(=O)(=O)c1ncc(Cl)c(C(=O)Nc2ccc3ccccc3c2)n1	10µM*	?
COc1cccc(-c2nc(-c3ccccc3)c3ccc(Cl)cc3n2)c1	20.5%	7.2%
O=C1OC(c2ccccc2)Sc2ccccc21 (centres undefined)	i	-9.3%
Cc1ccc([N+](=O)[O-])cc1S(=O)(=O)N1CCn2cccc2C1c1ccccc1 (centres undefined)	-10.4%	0.4%
COc1ccc(C2=NN(S(C)(=O)=O)C(c3cn(-c4ccccc4)nc3-c3cccs3)C2)cc1 (centres undefined)	-8.1%[7.34 µM]	-13.0%[7.34 µM]
CC(C)C[C@@H](CN1CCC[C@@H]1CN1C(=S)NC[C@@H]1Cc1ccccc1)N1C[C@H](Cc2ccc(O)cc2)N(CC2CCCCC2)C1=S	43.7%[activator]	-0.5%
O=C(c1ccc2c(c1)OCCO2)N(c1ccccn1)C1CCCCC1	.	-29.0%
Cc1cccc(Cc2cnc(N3C(=N)SC(c4ccccc4)C3=O)s2)c1 (centres undefined)	-6.0%	-5.1%
O=c1[nH]cnc2sc3c(c12)CCN(Cc1ccccc1)C3	-8.5%	-7.4%
CC(=O)O[C@H]1C[C@@H]2CC[C@@H]3[C@H](CC[C@@]4(C)[C@H]3C[C@H]([N+]3(C)CCCCC3)[C@@H]4OC(C)=O)[C@@]2(C)C[C@@H]1[N+]1(C)CCCCC1	-25.6%	-17.4%
Cc1ccccc1CC1(CO)CCCN(Cc2ccn[nH]2)C1 (centres undefined)	-10.9%	2.9%
Cc1cc(NC(=O)CSc2nnnn2C)n(-c2ccccc2)n1	.	?
COc1ccccc1/C=C/C(=O)NC(=S)NC(C)C	-16.1%	-5.5%
CC(=O)N1CCN(c2ccc(NC(=O)c3ccc4c(c3)OCO4)cc2)CC1	-5.4%	5.9%
CC(C)[C@H](NS(=O)(=O)c1ccc(Cl)cc1)C(=O)OCC(=O)NCCN1C(=O)CSC1=O	-17.3%	-7.5%
COc1ccc([N+](=O)[O-])cc1NCc1cccnc1	i	-8.7%
COc1cc(C2C(C#N)=C(N)Oc3cc(O)ccc32)cc(OC)c1OC (centres undefined)	-17.0%	-23.5%
COc1cc(NC(=O)N2CCc3nc(NCc4cccc(Oc5ccccc5)c4)ncc3C2)cc(OC)c1OC	10µM*	?
CCOC(=O)C1=C(C)N(C)C(=O)NC1c1cc2c(cc1Br)OCO2 (centres undefined)	.	-23.3%
CC1=C(C(N)=O)C(c2sccc2C)n2nnnc2N1 (centres undefined)	-17.3%	-1.6%
CCN(CC)c1ccc(/C=N\N2CCN(Cc3ccc(C)cc3)CC2)cc1	-27.3%	-4.3%
CC1(C)CCCN(C(=O)N2c3ccccc3Sc3ccccc32)C1	-18.0%	-22.2%
Cn1cc(S(=O)(=O)c2ccccc2)n(C)c1=O	-2.0%	-7.5%
COc1ccc(-c2nnc(SCC(=O)Nc3ccccc3OC)o2)cc1	-4.0%	-9.1%
COc1cc2c(cc1OC)C(COc1ccccc1OC)N(C(=O)C(C)C)CC2 (centres undefined)	-5.0%	-5.7%
CC(C)CNC(=O)C1CCN(c2ccc(S(=O)(=O)N3CCOCC3)cc2)CC1	-9.5%	-11.2%
CC(C)(C)OC(=O)C[C@@H]1C/C=C\C[C@@H](CC(=O)N(CCO)Cc2ccccc2)C(=O)N[C@H](C(C)(C)C)COC1=O	?	-22.0%
CC12CCC(C(=O)NCc3ccc(F)cc3)(OC1=O)C2(C)C (centres undefined)	-18.2%	-11.5%
COc1ccc(CN2C(=O)C(C)Nc3ncnc(N4CCN(c5ccccn5)CC4)c32)cc1 (centres undefined)	-1.5%	-26.4%
N#CC1C(=N)Cc2ccccc2-c2ccccc21 (centres undefined)	-27.0%	?
Cc1ccc(CNc2cc(C(=O)O)ccc2Cl)s1	-14.1%	-15.5%
Cc1cc2nc(SCC(=O)Nc3nonc3C)c3c(c2cc1C)CCCC3	i	-7.6%
O=[N+]([O-])c1ccc(C(=S)N2CCCC2)cc1	-14.5%	-1.6%
OCCNc1nc2ccccc2n1CCN1CCCCC1	-11.4%	-11.9%
CCOC(=O)c1ccc(NC(=O)CC2Nc3cc(C)c(C)cc3NC2=O)cc1 (centres undefined)	-7.9%	-9.9%
CCOC(=O)/C(C#N)=C(/C)c1ccc(OC)cc1	-11.4%	-6.0%
COc1ccc(NC(=O)CN2CCN(CC(=O)Nc3ccccc3Cl)CC2)cc1Cl	i	-23.3%
c1ccc(-c2cnc(CSc3ncnc4sccc34)o2)cc1	-18.7%	-18.9%
Cc1[nH]n(C(N)=S)c(=O)c1N=Nc1ccc([N+](=O)[O-])cc1Cl	-16.1%	-10.2%
Cc1noc(C)c1S(=O)(=O)NC1CCCc2ccccc21 (centres undefined)	-15.0%	-8.7%

By substructure: those above with a nitro group on carbon.
SMILES	VACV mCherry inh	Vaccinia Venus
Cc1ccc([N+](=O)[O-])cc1S(=O)(=O)N1CCn2cccc2C1c1ccccc1 (centres undefined)	-10.4%	0.4%
COc1ccc([N+](=O)[O-])cc1NCc1cccnc1	i	-8.7%
O=[N+]([O-])c1ccc(C(=S)N2CCCC2)cc1	-14.5%	-1.6%
Cc1[nH]n(C(N)=S)c(=O)c1N=Nc1ccc([N+](=O)[O-])cc1Cl	-16.1%	-10.2%

Later entries.
SMILES	VACV mCherry inh	Vaccinia Venus
Cc1c(C)c2ccc(OCC(=O)NCCc3c[nH]c4ccccc34)c(C)c2oc1=O	-18.9%	-5.2%
C=CCNC(=S)NC(=O)c1csc([N+](=O)[O-])c1	i	-1.3%
Cc1ccc(C)c(NC(=O)CCc2nc3cccnc3n2Cc2cccs2)c1	-9.6%	-7.8%
COc1cc(-c2cc(=O)c3c(O)cc(O)cc3o2)ccc1O	?	?
COc1ccc(C2CC(c3ccccc3)=NN2C(=O)COC(=O)c2cccc(S(=O)(=O)N3CCOCC3)c2)cc1 (centres undefined)	-13.4%	-14.1%
CSc1ccccc1N=Cc1nc(-c2ccccc2)oc1O	.	-2.1%
O=C(NCc1ccccn1)c1cc(Br)ccc1Cl	-8.7%	-10.9%
O=C(COc1ccccc1)N1CCN(C(=O)c2ccco2)CC1	-11.3%	-13.3%
O=C1CN=C(c2ccccc2)c2cc(Cl)ccc2N1	-0.8%	-10.0%
COc1ccccc1-c1cc(C(=O)N2CCOCC2)no1	-15.0%	-4.3%
O=C1[C@H]2[C@@H](c3ccccc3)N[C@]3(CCCN(Cc4ccccc4)C3=O)[C@H]2C(=O)N1Cc1ccccc1	i	-24.0%
Cc1ccc(S(=O)(=O)NCCC(c2ccccc2)c2ccccc2)cc1C(=O)O	-5.0%	-7.0%

Reprinted from the part before: 7 compounds, then new ones.
SMILES	VACV mCherry inh	Vaccinia Venus
CSc1ccccc1N=Cc1nc(-c2ccccc2)oc1O	.	-2.1%
O=C(NCc1ccccn1)c1cc(Br)ccc1Cl	-8.7%	-10.9%
O=C(COc1ccccc1)N1CCN(C(=O)c2ccco2)CC1	-11.3%	-13.3%
O=C1CN=C(c2ccccc2)c2cc(Cl)ccc2N1	-0.8%	-10.0%
COc1ccccc1-c1cc(C(=O)N2CCOCC2)no1	-15.0%	-4.3%
O=C1[C@H]2[C@@H](c3ccccc3)N[C@]3(CCCN(Cc4ccccc4)C3=O)[C@H]2C(=O)N1Cc1ccccc1	i	-24.0%
Cc1ccc(S(=O)(=O)NCCC(c2ccccc2)c2ccccc2)cc1C(=O)O	-5.0%	-7.0%
Cc1ccccc1Nc1ncnc2c1cnn2C	i	-3.9%&-7.5%
COc1ccc(Cl)cc1S(=O)(=O)N1CCN(C(=O)c2n[nH]c(=O)c3ccccc23)CC1	28.2µM*	?
C=C(C)C1CC=C(C)/C(=N/NC(=O)COc2ccccc2C)C1 (centres undefined)	-17.9%	-1.9%
C#CCOn1c(-n2nc(C)cc2C)nc2ccccc2c1=O	-3.9%	6.3%
O=C(NCCc1ccc(F)cc1)c1ccncc1	-13.6%	-10.2%
CCOc1cc(C(=O)NC(C)Cc2cccs2)cc(OCC)c1OCC (centres undefined)	-11.7%	-9.3%
Cc1c(C(=O)Nc2ccccc2F)sc2nc3n(c(=O)c12)CCC3	-3.6%	0.0%[7.34 µM]
Cc1cc(C)c(NC(=O)CCCCCNC2CCCCC2)c(C)c1	i	-4.9%
O=C(NCCS(=O)(=O)N1CCN(c2ccccc2F)CC1)c1c(F)cccc1F	-14.6%	-20.4%
Cc1ccc(Nc2ncnc(Cl)c2N)cc1	-25.1%	-16.7%
O=C(OCc1cn([C@H]2CN(C(=O)c3cccs3)[C@@H](c3ccccc3)C[C@@H]2O)nn1)c1ccccc1	0.8%	-11.9%
O=C(O)c1ccccc1SC1CC(=O)N(c2cccc3ccccc23)C1=O (centres undefined)	i	-18.4%
OCC[C@H]1C[C@H](O)[C@@H](O)[C@@]2(Cc3ccccc3O2)O1	i	8.4%
CCN1C(=O)C(CC(=O)Nc2ccccc2Cl)N(NC(=O)c2cccc(F)c2)C1=S (centres undefined)	-7.9%	?
Cc1ccc(N2C(=O)CC(Cc3cccc(C)c3)C2=O)cc1 (centres undefined)	-11.6%	-14.0%
CC(C)COC(=O)N(C)C[C@@H]1OCc2cnnn2CCCC(=O)N([C@H](C)CO)C[C@H]1C	-27.3%	-7.3%
C#CCOCCOCCOCCNc1nc(N2CCN(C(=O)[C@H]([C@@H](C)CC)n3cc([C@@H](N)Cc4ccc(O)cc4)nn3)CC2)nc(N2CCN(C(=O)[C@H](Cc3ccc(O)cc3)n3cc([C@@H](N)CC(C)C)nn3)CC2)n1	-25.2%	-7.0%
c1ccc2c(N=NN3CCCCC3)ccnc2c1	?	?
NNC(=O)CNC(c1ccccc1)c1cc(Br)ccc1NC(=O)c1ccccc1Br (centres undefined)	-24.0%	-11.5%
CCOC(=O)C1C(=O)CC(C)(O)C(C(=O)OCC)C1c1ccc(OCC)cc1 (centres undefined)	-3.4%	-4.3%
CCOC(=O)C(NC(=O)NCc1ccc(F)cc1)(OCC)C(F)(F)F (centres undefined)	-15.3%	-14.3%
CC1(C(=O)NCCOc2ccccc2Cl)CC1(Cl)Cl (centres undefined)	-21.0%	-12.5%
COc1ccc2nc(-c3ccc(N)cc3)[nH]c2c1	-13.5%	-13.3%
CCN1CCN(S(=O)(=O)c2ccc(Br)s2)CC1	i	-13.9%
CC(=O)Nc1ccc(NC(=O)C(C)OC(=O)C2CCN(S(=O)(=O)c3ccccc3C(F)(F)F)CC2)cc1 (centres undefined)	-12.3%	-6.3%
Cc1ccc(-c2cc(C(F)F)nc(NCC3CCCO3)n2)cc1 (centres undefined)	-24.8%	?
CN(N=O)c1ccc(C=C2c3ccccc3-c3ccccc32)cc1	-18.4%	-10.5%
O=[N+]([O-])c1ccc(C2=NN(c3ccccc3)C(c3ccco3)C2)cc1 (centres undefined)	-9.6%	243.4%[activator]
Nc1c(Br)cc2c3c(cccc13)-c1ccccc1-2	?	-8.1%
